# Assay outcomes from PubChem BioAssay.
# LANA-nucl inh: LANA-nucleosome interaction inhibition. FITC-LANA1-23 / chicken nucleosome fluorescence polarization; hits give low values. z-score (test concentration not listed). 51,000 compounds, 0.3% hits. AID 720717;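 active means both repeat wells score below -2 in polarization z-score versus plate sample wells, excluding overly bright wells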;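 further: 100 nL library stock added to about 30 µL; numbers are from one replicate; some results filed as inactive read as strong as hits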
#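 Assay system: FITC-LANA peptide and chicken nucleosomes; input: 240 nM purified chicken nucleosomes (480 nM peptide binding sites), final; also added: 50 nM FITC-LANA1-23 probe; medium: TEN-BT buffer, pH 7.5; doses: pin-transferred compound, 100 nL; times: 10–45 min, room temperature; technique: fluorescence polarization; replication: duplicates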
# BasE inh: BasE siderophore biosynthesis inhibition. 84,000 compounds, 0.1% hits. AID 485350. purified BasE, fluorescence polarization binding displacement. inhibition, % (no concentration beside the values);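 active means both replicates above 25% with normal brightness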;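 further: 0% = negative plate control signal and 100% = positive plate control signal; stock transfer was 100 nL into about 30 µL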
# Numbers without * were called inactive; · = no result given; & = joins results of further samples. Only part of the results is shown (hit frequency here may not be typical).
SMILES,LANA-nucl inh,BasE inh
Cc1cc(C)c(S(=O)(=O)/N=C2\SCCN2S(=O)(=O)c2c(C)cc(C)cc2C)c(C)c1,·,2.0
CC1SCC(=O)N(c2ccc(C(F)(F)F)cc2)C1=O (stereo not given),-0.43,·
CC(C)=NOC1=NS(=O)(=O)c2ccccc21,0.24,-1.2
C=C(C)c1cccc(C(C)(C)NC(=O)Nc2ccc3c(c2)oc2ccccc23)c1,·,0.6
COCCNc1cn[nH]c(=O)c1Cl,0.3,-0.9
COc1cc(-c2nc3ccccc3c(=O)n2N)cc(OC)c1OC,-0.19,0.4
CC(C)=CC(=O)Nc1ccc2c(c1)OCO2,0.093,0.6
O=[N+]([O-])c1cccc2c(Br)[nH]nc12,0.57,-1.4
COc1ccc(CCCc2n[nH]c(=S)o2)c(C)c1,-0.74,3.0
O=C(CN1CCCC1)Nc1cc(C(F)(F)F)cc(C(F)(F)F)c1,-0.41,·
O=C(O)CCCCN1Cc2ccccc2C1,-0.36,-1.8
CCOC(=O)c1sc2nc(NC(=O)Cc3ccccc3)sc2c1C,0.059,0.3
CCN1C2=C(C(=O)CCC2)C(c2cccc(OC)c2)C2=C1CCCC2=O,0.064,0.4
Cc1onc(-c2ccccc2)c1-c1nnc(CSc2nnnn2C)o1,·,-1.5
CCCCn1c(N)c(N2CCN(Cc3ccccc3)CC2)c(=O)[nH]c1=O,·,-0.2
Cc1cc(C)nc(SCC(=O)OCC(=O)Nc2ccc(N3CCCCC3)cc2)n1,·,0.5
N#CC(CC(=O)N1CCCC1)(CC(=O)N1CCCC1)c1nc2ccccc2s1,·,-1.4
COc1ccc(OC)c(S(=O)(=O)NC2CCCCNC2=O)c1 (stereo not given),1.9,-0.9
COC(=O)c1ccc(/N=C/N(C)C)s1,·,-0.4
N=C(N)SCc1ccccc1,-0.14,·
O=C(NCC(O)c1ccccc1)Nc1cccc(C(F)(F)F)c1 (stereo not given),-0.93,-5.4
CC1OCC(OC(=O)c2ccccc2)CO1 (stereo not given),2.6,0.3
CC(C)C(NC(=O)Cc1ccccc1)C(=O)N1CCN(S(=O)(=O)c2ccccc2C#N)CC1 (stereo not given),·,0.7
CCc1ccc(CNC(=O)CN(C)c2nnc(N3CCCC3=O)s2)cc1,-0.048,1.1
Cc1cc2nc(N3C(=N)SCC3=O)sc2cc1C,-1.6,-1.1
Cn1cnnc1SCC(N)=O,-0.58,0.5
Cc1cccc(NC(=O)CSCc2n[nH]c(=O)[nH]2)c1C,-0.3,0.8
NNC(=O)c1ccc(NN)cn1,·,2.1
Cc1cccc(NC(=O)CNC(=O)c2ccc3c(=O)[nH]c(CN4CCOCC4)nc3c2)c1C,·,4.3
CCCOC(=O)c1ccc(NC(=O)/C=C/c2ccccc2)cc1,·,3.4
COc1ccc(Cn2c(C)c(CNC(C)(C)C)c(C(=O)O)c2C)cc1,0.6,4.0
O=S(=O)(Cc1ccccc1)N1CCC(On2nnc3ccccc32)CC1,0.28,0.4
CCc1ccc(OCC(=O)Nc2ccc(-c3nc4ccccc4o3)c(O)c2)cc1,0.32,1.5
COc1ccc(N=c2cc(-c3ccc(OC)cc3)oc3ccc(O)cc23)cc1,·,-0.7
CCOC(=O)c1sc(SCC(=O)c2ccc(Cl)cc2Cl)nc1C,·,-1.1
N#CCCCSc1nnc(-c2ccccc2F)n1-c1ccccc1,·,-1.5

# Quoted at random: four compounds from above
SMILES,LANA-nucl inh,BasE inh
CCc1ccc(OCC(=O)Nc2ccc(-c3nc4ccccc4o3)c(O)c2)cc1,0.32,1.5
NNC(=O)c1ccc(NN)cn1,·,2.1
N#CCCCSc1nnc(-c2ccccc2F)n1-c1ccccc1,·,-1.5
Cc1cccc(NC(=O)CSCc2n[nH]c(=O)[nH]2)c1C,-0.3,0.8

# (list continues)
SMILES,LANA-nucl inh,BasE inh
Cc1cc(C)n(Cc2c(Cl)cccc2Cl)n1,·,5.9
O=C(OCC(=O)N1c2ccccc2Sc2ccccc21)c1ccc(Br)o1,·,-0.6
CCCSc1nc(C)cc(=O)[nH]1,·,1.3
O=C(CSc1ncn[nH]1)N1N=C2/C(=C/c3ccco3)CCCC2C1c1ccco1 (stereo not given),·,2.8
NC(=O)C1CCN(CC(=O)NCc2ccccc2Cl)CC1,·,3.2
CCN(CC)S(=O)(=O)c1ccc2c(c1)nc(SCc1csc(NC(C)=O)n1)n2CC,·,-0.4
Cc1cccc(-c2nc(C#N)c(N3CCCCC3)o2)c1,1,0.6
CNC(=O)COc1cccc2c(=O)[nH]ccc12,2,-1.7
CC(C)(C#N)N1CCN(c2ccc(Cl)c(Cl)c2)CC1,-0.21,·
CC(C)C(NC(=O)c1ccc2c(c1)OCO2)c1nnc(SCC(=O)NC2CCCCC2)n1C (stereo not given),1.1,-1.3
c1ccc(CN2CN(c3nccs3)CN(c3nccs3)C2)cc1,0.14,0.3
NC(=O)C1CCN(c2ncnc3sccc23)CC1,·,-1.0

# The list goes on, starting with the last 4 of the part before.
SMILES,LANA-nucl inh,BasE inh
CC(C)(C#N)N1CCN(c2ccc(Cl)c(Cl)c2)CC1,-0.21,·
CC(C)C(NC(=O)c1ccc2c(c1)OCO2)c1nnc(SCC(=O)NC2CCCCC2)n1C (stereo not given),1.1,-1.3
c1ccc(CN2CN(c3nccs3)CN(c3nccs3)C2)cc1,0.14,0.3
NC(=O)C1CCN(c2ncnc3sccc23)CC1,·,-1.0
O=C1CSC(=O)N1CCN1C(=O)CSC1=O,·,-1.3
COc1cc(C=Nn2c(-c3ccc(C)cc3)n[nH]c2=S)ccc1OC(C)=O,-0.5,2.3
Cc1ccccc1CSc1nnc2c(n1)[nH]c1ccccc12,·,1.4
CCN(CC)S(=O)(=O)c1ccc2c(c1)nc(CCC(=O)OCC(=O)c1ccc(Cl)s1)n2C,·,18
O=C(Nc1cccc(Cl)c1)OC1CCCCC1,·,2.1
COc1ccc(OC)c(C(=O)c2ccc(C(=O)O)cc2)c1,-0.19,1.1
CCS(=O)c1ccccc1C(=O)OCC(=O)N1CCC(c2ccccc2)=N1 (stereo not given),·,-2.4
N#Cc1ccc(CSc2nc3ccccc3c(=O)n2Nc2ccccc2)cc1,·,0.9
COc1cc(OC)cc(C2=NC3(CCC(C)CC3)NC2=O)c1 (stereo not given),0.14,1.6
CC1CCN(C2=NN3C(=N)/C(=C\c4ccc(SCc5ccco5)o4)C(=O)N=C3S2)CC1,-0.49,-0.7
CCCc1cc2c(=O)c(-c3ccc4c(c3)OCCO4)c(CC)oc2cc1O,-0.085,-0.4
Cc1nc2ncc3c(n2n1)CCc1ccccc1-3,2.3,-1.7
CCn1nc(C(=O)N/N=C/c2cccc(OC)c2)c2ccccc2c1=O,·,1.0
CCCCN1C(=O)c2ccc(C(=O)Nc3cccnc3)cc2C1=O,-0.31,3.3
COC(=O)/C(=C(/O)CSc1nnc(-c2cccc(S(=O)(=O)N3CCCCC3)c2)o1)c1nc2ccccc2[nH]1,·,1.2
COc1ccc(O)c(C(=O)c2cnn(C(=O)c3cccc(S(=O)(=O)N4CCOCC4)c3)c2)c1,·,-1.4
Cc1nc(-c2cccc(NC(=O)c3ccco3)c2)cs1,-0.43,-6.7
CC1CCC(NC(=O)CCCn2ncn3c(cc4occc43)c2=O)CC1 (stereo not given),0.64,-1.5
CC1=NN(c2cccc(Cl)c2)C(=O)/C1=C\N1CCOCC1,·,3.3
CCOc1ccc(NC(C)c2cc(Cl)ccc2O)cc1 (stereo not given),0.84,-1.1
O=C(O)c1cnn2c(C(F)(F)F)cc(-c3cccs3)nc12,-0.36,-2.6
O=C(Nc1ccc(F)cc1)NC1(C(=O)O)CCCCC1,-0.38,-0.4
CC(C)NC(=O)N1CCn2cccc2C1Cc1ccccc1 (stereo not given),0.22,-2.5
COC(=O)CCn1cc(C=C2C(=O)NC(=O)NC2=O)c(-c2ccccc2)n1,·,2.5

# Single records (already shown). Values in the order: LANA-nucl inh, BasE inh
# Record of CC1=NN(c2cccc(Cl)c2)C(=O)/C1=C\N1CCOCC1 = ·, 3.3
# Record of O=C(Nc1cccc(Cl)c1)OC1CCCCC1 = ·, 2.1

# Next section:
SMILES,LANA-nucl inh,BasE inh
O=C(CN(CC(=O)Nc1ccc2c(c1)OCCO2)S(=O)(=O)c1ccccc1)Nc1ccc2c(c1)OCCO2,·,1.8
CCN(CC)c1cccc(OCC(=O)NCc2cccs2)c1,·,2.8
CNC(=O)n1ccc(C(=O)N2CCCCC2)n1,0.28,-0.9
Cc1onc(-c2ccccc2)c1C#N,0.82,·
CCN(CC)S(=O)(=O)c1ccccc1,·,-0.2
Cc1ccc(C(=O)/C=C/Nc2ccc(C(F)(F)F)cc2)cc1,·,-0.5
CCOC(=O)c1cnc(O/N=C/c2ccc(F)cc2)nc1C(F)(F)F,-0.33,6.1
O=c1[nH]cnc2c1ncn2[C@H]1CC[C@@H](CO)O1,-0.67&-0.068,·
Cc1cc(C)c2c(-n3cccc3)n[nH]c2n1,0.25,·
O=C(c1ccccc1)N1CCN(c2ncccn2)CC1,·,2.4
COCC(C)n1c(C)cc(C(=O)COC(=O)c2ccc3c(c2)S(=O)(=O)N=C2CCCCCN23)c1C (stereo not given),·,-4.7
O=C(O)CC(c1ccncc1)c1c[nH]c2ccccc12 (stereo not given),-0.41,-0.2
Cc1ccn(CCC(=O)Nc2cccc(C(F)(F)F)c2)n1,-1.1,0.9
CN(CC(=O)Nc1ccc(F)cc1)C(=O)CSc1nnc(Cc2ccccc2)o1,·,-0.6
CN1CCN(c2ccc(NC(=O)CSc3ccc(Cl)cc3)cc2)CC1,-1.7,0.6
O=C(O)c1ncoc1-c1cccc(Cl)c1,·,1.3
C=CCN(C(=O)CSc1nncn2c1cc1occc12)c1ccccc1,0.83,-0.9
O=C(Sc1ccc(Oc2ccc(SC(=O)c3ccco3)cc2)cc1)c1ccco1,·,3.0
N#Cc1cccc(NC(=S)NC(=O)c2cccs2)c1,-0.83,0.6
CC(C(=O)N=Nc1c(O)[nH]c2ccccc12)n1cnc2ccccc2c1=O (stereo not given),0.58,-0.4
O=c1c(Cc2ccccc2)c(O)c2cccc3c4ccccc4n1c23,·,1.3
COc1cc(C(C)(C)C)c(OC)cc1C(C)(C)C,·,0.1
CCCN(CCC)CN1C(=O)S/C(=C/c2ccc(N(CC)CC)cc2)C1=O,0.46,-3.4
CC(=O)NC(Cc1c[nH]c2ccccc12)C(=O)N1CCC(=O)CC1 (stereo not given),·,1.9
COc1ccc(CCNC(=O)CSc2nc3c(cnn3-c3ccc(Cl)cc3)c(=O)[nH]2)cc1OC,-0.62,-0.1
CC(C)OC(=O)COc1ccc2ccc(=O)oc2c1,·,1.8
O=C(Nc1c[nH]c(=O)[nH]c1=O)c1cccc(N2C(=O)CCC2=O)c1,0.0075,-1.2
CN(Cc1cccc(Cl)c1)C1CCN(C(=O)NCc2ccccc2)CC1,0.54,4.4
CCc1ccc(NC(=O)CN(C(=O)N2CCN(CC)CC2)S(=O)(=O)c2ccc(C)cc2)cc1,-0.93,0.3
CC(=O)Oc1cnc2ccc(C)cc2c1,-1.5,-0.1
O=C(NCc1cccnc1)C1c2ccccc2C(=O)N1Cc1ccco1 (stereo not given),1.1,-4.1
CN1C(=O)NC(NC(=O)c2ccccc2)(C(F)(F)F)C1=O (stereo not given),-0.77,-1.0
CN(C)c1cccc(C(=O)N(Cc2ccc3c(c2)OCO3)C2CCCC2)c1,·,0.3
C=CCn1c(SCC(=O)Nc2ccc(C)cc2)nc2sc3c(c2c1=O)CCCC3,·,0.3
CC(C)C(=O)Nc1cccc(Cl)c1Cl,2.2,-1.9
CCCCCC12CCC(O)(CC1)CC2,-0.32,-0.4
CCCCC(=O)Nc1ccc2[nH]c(=O)oc2c1,0.27,1.6
O=S(=O)(c1ccc(Sc2nnc(-c3cccs3)n2CC2CCCO2)nc1)N1CCCC1 (stereo not given),·,0.0
CC(=O)n1nc(-c2cccnc2)nc1NCc1ccco1,-0.12,3.0
CC(C)[C@H](O)CC[C@@H](C)[C@H]1CC[C@H]2[C@@H]3CC=C4C[C@@H](O)CC[C@]4(C)[C@H]3CC[C@]12C,-0.73,-1.4
N#Cc1nc(=O)n(-c2ccc(OC(F)(F)F)cc2)c(N)c1N=Cc1ccc(C(F)(F)F)cc1,·,4.2
O=C(O)c1cc(-n2c(-c3cnccn3)n[nH]c2=S)ccc1Cl,-0.14,2.8
O=C(O)C1C2C=CC(C2)C1C(=O)OCc1ccccc1 (stereo not given),-0.98,1.1
CCc1ccccc1NC(=O)CCN1C(=O)c2ccccc2C1=O,·,0.9
Cc1cc(C)c2[nH]c(=O)c(CN(C3CCCCC3)C(c3nnnn3Cc3ccco3)C(C)C)cc2c1 (stereo not given),-0.17,2.3
CCOc1cc(NC(=O)[C@@H](NC(=O)c2ccco2)C(C)C)c(OCC)cc1NC(=O)c1ccccc1,·,1.6
Cc1ccc(S(=O)(=O)Cn2nnnc2CN(Cc2ccco2)Cc2cccs2)cc1,0.48,-0.4
CSc1nsc(SCC(=O)Nc2ccccc2)n1,-0.4,0.0
COC(=O)c1cc2c(s1)CCCC2,·,3.9
C=CCNC(=O)c1cc(Br)cs1,1.2,2.3
Cc1noc(C)c1COC(=O)c1ccc2c(c1)C(=O)N(Cc1ccccc1)C2=O,·,2.7
CC(C)(C)CC(C)(C)c1ccc(OCCOCC[N+](C)(C)Cc2ccccc2)cc1,0.94&-0.53&-0.48,-3.5&-2.1
Cc1csc(SCC(=O)c2ccc3c(c2)NC(=O)CO3)n1,·,-2.7
